Assay outcomes (PubChem)
FEN1 inhibitor: blocks human flap endonuclease 1; P39748; Recombinant FEN1 flap cleavage, fluorescence, 15 min; Potency, µM (doses to about 114 µM), inactives show at the highest dose activity change, negative = inhibition, hits mostly inhibitors; 0.35% of 390,000 active; also: nearly all actives have a fitted effect of over 65% in size
Target sequence (P39748 whole entry, looked up): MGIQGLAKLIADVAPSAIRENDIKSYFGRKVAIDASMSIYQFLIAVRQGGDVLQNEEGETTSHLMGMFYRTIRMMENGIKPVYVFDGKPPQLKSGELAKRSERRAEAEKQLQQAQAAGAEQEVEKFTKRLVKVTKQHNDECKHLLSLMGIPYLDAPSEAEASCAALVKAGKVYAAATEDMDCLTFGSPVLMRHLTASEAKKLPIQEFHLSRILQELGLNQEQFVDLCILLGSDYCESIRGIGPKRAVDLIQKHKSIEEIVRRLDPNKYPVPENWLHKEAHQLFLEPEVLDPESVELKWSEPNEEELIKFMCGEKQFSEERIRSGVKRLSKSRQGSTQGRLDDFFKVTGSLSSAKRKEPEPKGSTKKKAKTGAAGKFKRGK
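Read-out was taken twice, immediately and after 15 min, following addition of 50 nM substrate to 10 nM FEN1 that had sat with test compound for 15 min at room temperature. Curves came from a four-parameter Hill model.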
N370S GC: N370S glucocerebrosidase modulation, Gaucher chaperone candidate | P04062 | N370S GC spleen homogenate, 4MU-glucoside fluorescence | Potency, µM (top dose mostly 59.4 µM), inactives show at the highest dose activity change, negative = inhibition, most hits filed as inhibitors | 0.092% of 330,000 active;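 also: 0% = full enzyme activity and -100% = no enzyme basal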
An asterisk follows results filed as active; u = inconclusive; x = no result given; & = joins results of further samples; [ ] = another dose, or the depositor's remark. Calls follow the shape of the dose curve; as a rule, active = well fitted curve in the direction sought with a large enough effect; inconclusive = small, poorly fitted or top-dose-only effect, or another doubt; inactive = no such curve, though single readings can be large; an effect the other way counts as inactive or inconclusive. Unless noted, % is scaled to controls: 0 for no effect and ±100 for the full control effect; potency is read from the fitted curve at half-maximal effect.

SMILES | FEN1 inhibitor | N370S GC
CCN(CC)CCNC(=O)c1c(O)c2cc(OC)c(OC)cc2[nH]c1=O | -1.9% | -1.5%
Cc1cc(Br)ccc1NC(=O)CCS(=O)(=O)c1cccc2nsnc12 | 8.5% | x
COCCNC(=S)N/N=C1\CC(C)CC(C)(C)C1 (configuration not stated) | 2.3% | -18.3%
CCOC(=O)/C(C#N)=C/c1ccc(OCC(=O)Nc2ccc(C)c(C)c2)c(OC)c1 | 3.3% | 21.6%
CCOC(=O)CN1C(=O)C(O)(CC(=O)c2ccc3c(c2)CCCC3)c2ccccc21 (configuration not stated) | -3.8% | -11.7%
COc1ccccc1NC(=O)c1ccc2c(c1)OCO2 | -3.4% | -1.4%
COc1ccc(C(=O)NCc2csc(C(C)C)n2)cc1OC1CCN(C(C)=O)CC1 | -2.4% | 2.6%
N#C/C(=C\c1cccnc1)c1ccc(Br)cc1 | 7.9% | 12.6%
Cc1c(C(=O)NC(=S)Nc2ccc(N3CCOCC3)cc2)cccc1[N+](=O)[O-] | -0.1% | 1.7%
CC1CCN(c2ccc(-c3ccc(NC(=O)C(F)(F)F)cc3)nn2)CC1 | -8.1% | -4.7%
Cc1ccc(C)c(NC(=S)N(C2CCCCC2)C(C)c2cccnc2)c1 (configuration not stated) | 10.0% | -0.4%
Cn1cccc1/C=C1\SC(=S)N(NC(=O)c2ccccc2)C1=O | 2.8% | -4.1%
CC(C)CCNC(=O)c1onc(CSc2ccc(Cl)cc2)c1C(=O)NCCC(C)C | -30.5% | 6.3%
COc1ccc(Cc2nnc(SCC(=O)Nc3nc(C)cs3)o2)cc1 | 0.8% | 0.1%
CCOC(=O)/C=c1\s/c(=C\c2c(OCC)ccc3ccccc23)c(=O)n1CC(=O)NCC1CCCO1 (configuration not stated) | -6.8% | -3.3%
O=C(COc1ccccc1)NN1C(=O)CSC1=S | -0.4% | 6.1%
O=C(Cn1c(=O)n(-c2cccc(C(F)(F)F)c2)c(=O)c2sccc21)NCC1CCCO1 (configuration not stated) | -6.0% | 1.5%
c1ccc(COc2ccc(OCCOCCn3cncn3)cc2)cc1 | -2.1% | 4.6%
Cc1cc(C)nc(/N=C(\N)Nc2ccc(C(C)C)cc2)n1 | u | -17.2%
Cc1cc(C(F)(F)F)n(-c2nc(C(=O)NNS(=O)(=O)c3ccccc3[N+](=O)[O-])cs2)n1 | 11.7% | 3.6%

In another format: four of the compounds above
> CCOC(=O)CN1C(=O)C(O)(CC(=O)c2ccc3c(c2)CCCC3)c2ccccc21 (configuration not stated)
- FEN1 inhibitor: -3.8%
- N370S GC: -11.7%

> COc1ccccc1NC(=O)c1ccc2c(c1)OCO2
- FEN1 inhibitor: -3.4%
- N370S GC: -1.4%

> COc1ccc(C(=O)NCc2csc(C(C)C)n2)cc1OC1CCN(C(C)=O)CC1
- FEN1 inhibitor: -2.4%
- N370S GC: 2.6%

> N#C/C(=C\c1cccnc1)c1ccc(Br)cc1
- FEN1 inhibitor: 7.9%
- N370S GC: 12.6%

Sorted by SMILES length (smallest number first): 6 of the compounds above
SMILES | FEN1 inhibitor | N370S GC
O=C(COc1ccccc1)NN1C(=O)CSC1=S | -0.4% | 6.1%
Cc1cc(C)nc(/N=C(\N)Nc2ccc(C(C)C)cc2)n1 | u | -17.2%
Cn1cccc1/C=C1\SC(=S)N(NC(=O)c2ccccc2)C1=O | 2.8% | -4.1%
Cc1ccc(C)c(NC(=S)N(C2CCCCC2)C(C)c2cccnc2)c1 (configuration not stated) | 10.0% | -0.4%
CC(C)CCNC(=O)c1onc(CSc2ccc(Cl)cc2)c1C(=O)NCCC(C)C | -30.5% | 6.3%
CCOC(=O)/C=c1\s/c(=C\c2c(OCC)ccc3ccccc23)c(=O)n1CC(=O)NCC1CCCO1 (configuration not stated) | -6.8% | -3.3%

The listing continues.
SMILES | FEN1 inhibitor | N370S GC
CC(C)CCN1CCN(Cc2ccsc2)CC1CCO (configuration not stated) | 3.7% | 3.3%
CS(=O)(=O)N(C(=O)NC(=O)NC12CC3CC(CC(C3)C1)C2)C1CCCCC1 | -3.4% | -3.7%
CCOc1cc(C(=O)NC(C)CC)cc(OCC)c1OCC (configuration not stated) | 3.2% | 2.2%
Oc1cccc2ccc[n+](CC(O)Cn3c4ccccc4c4ccccc43)c12 (configuration not stated) | -8.6% | 1.9%
COc1ccccc1CNC(=O)CCCCn1c(=O)c2ccccc2n(CC(=O)Nc2c(C)cc(C)cc2C)c1=O | -9.7% | x
C[C@]12CCC(=O)C=C1CC[C@@H]1[C@@H]2[C@@H](O)C[C@@]2(C)[C@H]1CC[C@]2(O)C(=O)CO | 11.0%&15.9% | 5.3%&2.2%
CC(=O)c1c(C)[nH]c(C(=O)OCC(=O)Nc2cccc(S(=O)(=O)N3CCCC3)c2)c1C | -18.8% | 3.7%
CCNC(=S)N/N=C(\C)c1cccc([N+](=O)[O-])c1 | 13.8% | -2.6%
Cc1oc(-c2cc(Cl)cc(Cl)c2)cc1C(=O)NCCc1ccccc1 | -11.3% | 8.0%
C/C(=N\NC(=O)CCc1ccc(S(=O)(=O)N2CCOCC2)cc1)c1ccccc1Cl | 1.8% | 9.6%
COc1ccccc1NS(=O)(=O)c1ccc(C(=O)Nc2ncccc2O)cc1 | -3.1% | x
CCC(C)(C)NC(=O)CN(Cc1ccc2c(c1)OCO2)C(=O)CCC(=O)Nc1ccccn1 | -0.9% | 8.4%
O=C(CCCn1c(=S)[nH]c2cc3c(cc2c1=O)OCO3)N1CCN(c2ccc(F)cc2)CC1 | 11.3% | -2.3%
CCN(CC(=O)Nc1ccc(OC(F)F)cc1)C1CCCCC1 | 10.0% | 3.0%
O=C(NCc1ccc(Cl)cc1)C(=O)NCC1OCCN1C(=O)c1ccc(Cl)cc1 (configuration not stated) | -1.8% | -15.7%
Cc1cc(NC(=O)CCC(=O)N(Cc2ccc(F)cc2)C(C(=O)NC2CCCC2)c2ccco2)no1 (configuration not stated) | 2.4% | -26.0%
CCC(C(=O)NCc1ccco1)N(C(=O)CNS(=O)(=O)c1ccccc1)c1ccc(OC)cc1 (configuration not stated) | -4.4% | -4.6%
CSCCC(NC(=O)c1ccccc1)C(=O)O (configuration not stated) | -1.7% | -4.7%
C[C@]12CC(O)C3C(CCC4=CC(=O)CC[C@@]43C)C1CCC2c1csc(-c2ccccc2)n1 (some centres not stated) | -7.3% | 10.2%
O=C(Cc1n[nH]c(=O)c2ccccc12)Nc1cc(C(F)(F)F)ccc1-n1cncn1 | -1.3% | 1.3%
CCN(C(=O)Nc1ccccc1OC)c1c(N)n(Cc2ccccc2)c(=O)[nH]c1=O | -3.0% | -17.0%
O=C(C(c1ccccc1)c1ccccc1)N1CCN(Cc2ccc(Br)cc2)CC1 | -4.1% | 2.1%
CC(=O)c1ccc(NC(=S)Nc2ccc(N3CCOCC3)cc2)cc1 | 0.6% | -11.2%
Cc1onc(-c2c(Cl)cccc2Cl)c1CO/N=C(\C#N)c1c(Cl)cccc1Cl | 3.1% | 1.3%
CCOC(=O)c1cnc(NCc2ccccc2)nc1C | 0.2% | 2.7%
CCOC(=O)c1cnn(Cc2cccc(Cl)c2)c1C | -13.0% | 11.3%
COCCn1c(SC2CCOC2=O)nc2ccccc2c1=O (configuration not stated) | 1.5% | -14.4%
COc1ccccc1NC(=O)Nc1nc(CC(=O)Nc2cc(F)ccc2F)cs1 | -18.9% | -6.1%
COc1ccc(CN2C(=O)CSC2c2ccccn2)cc1 (configuration not stated) | -0.4% | -3.5%
O=C(O)c1ccc(-c2ccco2)n1Cc1ccccc1 | 9.9% | 4.4%
Cc1c(/C=N/n2cnnc2)c2ccccc2n1C | 0.1% | -6.5%
C=CCNC(=S)N1CCN(c2ccc([N+](=O)[O-])cc2)CC1 | -2.8% | -17.5%
CCOc1ccc(C(=O)c2c(N)c(-c3nc(-c4ccc5c(c4)OCO5)cs3)c3ccccn23)cc1 | -4.0% | x
O=C(O)CCC(=O)N1N=C(c2ccc(Br)cc2)CC1c1cccs1 (configuration not stated) | -12.2% | -9.6%
CC(CC(=O)NCCc1ccc(F)cc1)c1ccccc1 (configuration not stated) | 3.0% | -0.5%
CCCOc1ccc(CN(CCO)CCO)cc1C(=O)OC | 3.1% | -6.1%
Fc1ccc(Nc2nnc(C(F)(F)F)s2)cc1Cl | -4.4% | -2.1%
COc1ccc(CCNC(=O)C2CCCN(S(=O)(=O)c3cnc[nH]3)C2)cc1OC (configuration not stated) | 1.1% | 0.5%
COc1ccc(OCCCC(=O)NCC(C)C)cc1 | 4.6% | -16.4%
Clc1ccc(-c2nnc(-c3ccco3)o2)cc1 | 0.1% | 1.6%
CN(c1ccc(OCC(=O)OCC(=O)Nc2ccccc2)cc1)S(=O)(=O)c1cccs1 | -2.6% | 10.2%
COCCCn1cc(C(=O)c2ccccc2OCC(=O)Nc2cccc(F)c2)cc(C#N)c1=O | 8.6% | u
CCOC(=O)C1CN(S(=O)(=O)c2ccc(F)cc2)C1 | -13.5% | 8.3%
CCCCc1nc2sc3c(c2c(=O)[nH]1)CCC3 | 5.2% | 1.3%
Cc1cc(C)n(C(=O)c2ccc(NC(=O)C3COc4ccccc4O3)cc2)n1 (configuration not stated) | 5.8% | 11.7%
O=C(Oc1ccccc1)c1cc2ccccc2o1 | -15.9% | -17.6%
CCC1(c2ccc(Cl)cc2)NC(=O)N(Cc2ccc(C(=O)OC)cc2)C1=O (configuration not stated) | 4.4% | -3.3%
CCC(C)(C)n1nnnc1C(C(C)C)N(Cc1ccco1)Cc1cc2cc3c(cc2[nH]c1=O)OCO3 (configuration not stated) | 14.0% | 21.3%
COc1ncnc2c1oc1nc(CC(C)C)c3c(c12)CCCC3 | -0.2% | 1.0%[2.35 µM]
O=C1OC(Nc2ccc(F)c([N+](=O)[O-])c2)c2ccccc21 (configuration not stated) | 8.3% | -3.5%
Carrying on:
SMILES | FEN1 inhibitor | N370S GC
COc1ccc(N2C(=O)C3CCCCC3C2=O)cc1NC(=O)c1ccccc1 (configuration not stated) | -1.2% | -2.3%
COCC(COCCCNC(=O)Nc1ccc(Br)cc1)OC (configuration not stated) | -1.6% | 3.5%
CC(C)N1CN=C(Nc2nc3ccccc3o2)NC1 | -8.3% | 4.5%
O=C1C2CC=CCC2C(=O)N1c1ccc(NCCc2ccc(Cl)cc2)c([N+](=O)[O-])c1 (configuration not stated) | -11.1% | -9.3%
CC[C@]12c3[nH]c4cc(-c5ccco5)ccc4c3CCN1C(=O)[C@@H](CC(=O)NCCc1ccccn1)C[C@@H]2C(=O)N1CCN(C(=O)c2ccco2)CC1 | -17.1% | x
Nc1c(-c2ccccc2)c(CSc2nc3ccccc3[nH]2)nn1-c1ccc(C(=O)O)cc1 | u | 14.8%
O=C(c1ccc(-c2ccccc2Cl)o1)N1CCN(S(=O)(=O)c2cccs2)CC1 | -12.0% | 4.7%
CCOC(=O)CC(=O)CSc1nnc(Cn2c(=O)sc3ccccc32)n1C | -0.7% | -29.2%
CCCOc1ccc(C2/C(=C(\O)c3c(C)[nH]c(C(=O)OC)c3C)C(=O)C(=O)N2CCN(C)C)cc1 (configuration not stated) | -11.6% | -1.0%
COc1ccccc1C(=O)Nc1ccnn1C1CCN(C(=O)c2ccoc2C)CC1 | 10.1% | 0.4%
COCc1cc(=O)[nH]c(SC)n1 | 4.6% | 9.3%
O=C(N/C=N/O)C1=NOC(CNc2ncc(C(F)(F)F)cc2Cl)C1 (configuration not stated) | -1.9% | 1.8%
Cc1ccc(NC(=O)COc2nsnc2N2CCOCC2)cc1Cl | -2.0% | -2.4%
Nc1cccc([N+](=O)[O-])c1 | -15.4% | 0.4%&-1.6%
CCCCn1c(SCC(=O)Nc2nnc(C)s2)nc2c1c(=O)n(C)c(=O)n2C | -13.1% | -0.1%
COc1ccccc1N1CCN(S(=O)(=O)CCNC(=O)C2CC(=O)N(c3ccccc3)C2)CC1 (configuration not stated) | 2.2%&20.8% | -4.4%
COC(=O)Cn1cc(/C=C(/C#N)C(=O)N2CCOCC2)c2ccccc21 | -3.4% | 1.8%
COc1cc(OC)cc(-c2c(-c3cccs3)c3cc(-c4ccc(SC)cc4)ccc3n2C)c1 | 3.2% | x
Cc1ccc(N2C(N)=NC(N)=NC2(C)C)c(C)c1 | -0.2% | 2.6%
COC(=O)[C@H](C)NC(=O)Nc1ccc(S(N)(=O)=O)cc1 | 11.2% | -6.4%
COc1ccc(-c2nc3c(c(SCC(=O)N(C)c4ccccc4)n2)Cc2cc(C)ccc2O3)cc1 | 1.7% | x
COc1ccc(CNC(=O)c2cccnc2SC)cc1OC | 3.6% | -8.2%
Cc1ccn(C)c(=N)c1 | 21.8% | -12.8%
CC1CCCCN1C(=O)COC(=O)c1cc([N+](=O)[O-])ccc1N (configuration not stated) | 1.1% | -4.1%
O=C(COC(=O)[C@H](Cc1ccccc1)NC(=O)c1ccco1)Nc1ccccc1OC(F)F | -8.5% | x
CCN(C(=O)c1cc2c(s1)-c1c(C)cccc1OC2)c1cc(C)ccc1C | -14.0% | x
CC1CN(C(=O)c2ccc3c(c2)OCO3)OC(c2ccccc2)O1 (configuration not stated) | -6.3% | -3.2%
O=[N+]([O-])c1ccc(N2CCOCC2)cc1SCc1ccco1 | -1.6% | 26.1%

An excerpt; most or all hits stand in other tables.
